High-throughput results deposited in PubChem by several laboratories.
YopH PTP inh: YopH (Yersinia) phosphatase inhibition; fluorescence Ex485/Em525; inhibition, %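 (about 10 µM by stock and volumes)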; 140,000 compounds, 0.16% hits;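 active means inhibition of 50% or more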;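 further: controls were vehicle for no effect and minimum signal wells for full effect; inactives centre near -20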
Mtb H37Rv: M. tuberculosis H37Rv growth inhibitors, H37Rv strain (AID 1626); M. tuberculosis H37Rv growth inhibition; higher % means a stronger effect; inhibition, % at 10 µM, or IC50 in µM where a hit was titrated; 220,000 compounds, 0.95% hits;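 active means confirmed in a dose series; inconclusive means inhibition above 80% but not taken into the dose series; inactive means below 80% or under 30% at every dose of the series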;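 further: bacteria incubated seven days before Alamar blue readout; 0% = bacteria only wells and 100% = bacteria with antibiotic wells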
Arbovirus anti: arbovirus infection inhibition. inhibition, % at 10 µM. 200,000 compounds, 0.37% hits. AID 1251. arbovirus infection cell-based antiviral screen;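 active means inhibition from about 30%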;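 further: bluetongue infection of BSR cells; cell survival read as ATP light after 72 h; 0% = infected wells without compound and 100% = uninfected wells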
RecA splice inh: inhibitors of M. tuberculosis RecA intein splicing. 290,000 compounds, 0.75% hits. P9WHJ3. inhibition, %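 (about 9 µM by stock and volumes)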. cell-free RecA intein splicing, fluorescence; in the data active means inhibition above about 30%; inconclusive means no clear call, values can overlap the other calls;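 further: 0% = vehicle wells and 100% = reference inhibitor control wells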
Target sequence (P9WHJ3 whole entry, looked up, canonical isoform): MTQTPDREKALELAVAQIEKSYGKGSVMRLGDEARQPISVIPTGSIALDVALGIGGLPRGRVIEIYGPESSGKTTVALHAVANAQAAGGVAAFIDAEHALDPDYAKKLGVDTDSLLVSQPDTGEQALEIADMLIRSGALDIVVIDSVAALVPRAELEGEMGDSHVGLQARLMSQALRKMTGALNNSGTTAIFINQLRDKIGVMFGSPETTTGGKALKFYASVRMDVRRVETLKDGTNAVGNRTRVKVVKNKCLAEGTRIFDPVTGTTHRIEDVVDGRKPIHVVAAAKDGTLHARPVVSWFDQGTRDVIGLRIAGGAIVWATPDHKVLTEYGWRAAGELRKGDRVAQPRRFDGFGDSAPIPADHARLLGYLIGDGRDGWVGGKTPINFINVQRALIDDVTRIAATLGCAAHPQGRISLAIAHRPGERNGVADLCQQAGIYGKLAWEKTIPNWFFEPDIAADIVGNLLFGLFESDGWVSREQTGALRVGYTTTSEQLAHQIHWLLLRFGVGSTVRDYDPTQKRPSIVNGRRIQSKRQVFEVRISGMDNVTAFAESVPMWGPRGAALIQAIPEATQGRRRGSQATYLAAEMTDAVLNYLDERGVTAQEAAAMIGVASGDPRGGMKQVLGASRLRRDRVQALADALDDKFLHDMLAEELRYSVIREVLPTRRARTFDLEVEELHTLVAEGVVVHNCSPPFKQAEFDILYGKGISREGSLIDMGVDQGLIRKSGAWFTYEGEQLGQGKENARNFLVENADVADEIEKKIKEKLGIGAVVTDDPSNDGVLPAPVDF
Mtb betalactam: beta-lactam sensitization of Mtb H37Rv | M. tuberculosis H37Rv growth with meropenem, percent inhibition; hits of this screen are not shown here | inhibition, % at 25 µM | 330,000 compounds, 0.27% hits | AID 434955;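 active means about 74% or more and at least 40 points above the plate without the antibiotic, then above 30% in a dose series; inconclusive means first-round hits that could not be retested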;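 further: growth measured after seven days incubation then overnight dye step; 0% = bacteria only wells and 100% = bacteria with antibiotic; twin plates without the antibiotic show which effects depend on it; some results filed as inactive read as strong as hits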
* marks the source's active call; other numbers are inactive results; u = inconclusive; x = no result given. Not all compounds are listed, so the mix of outcomes need not match the whole.

Every second line gives: Mtb betalactam	Arbovirus anti	Mtb H37Rv	RecA splice inh	YopH PTP inh
- Cc1nc2[nH]c(=O)c3c(n2n1)NC1=C(C(=O)CC(C)(C)C1)C3c1ccc(F)cc1 (stereo not given)
→ 7	7	-8%	-15	-31
- C=CCn1c(NC(=O)c2ccccc2)nc2ccccc21
→ 98	x	x	2.9	x
- COc1ccc(OCc2cc(C(=O)N(C)Cc3cnccn3)no2)c(Cl)c1
→ -4	x	x	-0.1	x
- CCOc1cc(/C=C2\C(=N)N3N=C(CC)SC3=NC2=O)ccc1OCCOc1ccc(NC(C)=O)cc1
→ 11	x	x	0.3	x
- O=C(Cn1c(=O)oc2ccccc21)c1ccccc1
→ -5	-6	9%	-0.6	12
- O=C(O)CCn1cc(C=C2C(=O)NC(=S)NC2=O)c(-c2ccccc2)n1
→ -16	6	-1%	-2.5	x
- CN(C)/C=C1/C(=O)Nc2ccccc21
→ -7	4	-19%	-2.3	-40
- COc1cccc(NC(=O)CSc2ncc(S(=O)(=O)c3ccccc3)c(=O)[nH]2)c1
→ -11	x	-3%	3.3	x
- O=C(NCC(O)c1ccc([N+](=O)[O-])cc1)c1cccc(S(=O)(=O)N2CCCC2)c1 (stereo not given)
→ -6	-3	0%	0.5	x
- CC(C)CCN1CCC(N)=NC1=O
→ x	9	1%	x	x
- Cc1ccc(SCC(=O)OCC(=O)N(C)CC(=O)Nc2ccc(F)cc2)cc1
→ 1	x	x	-0.9	x
- CCCn1cc(SCC(=O)NCc2ccco2)c2ccccc21
→ -7	2	-5%	0.9	-13
- O=C(CSc1nnc(Cn2cnc3ccccc32)o1)Nc1cccc2ccccc12
→ 4	5	-14%	3.6	-4
- Cc1ccc(OCCOc2ccc(Br)cc2/C=N\NC(N)=O)cc1
→ 9	-7	4%	-3.2	x
- CC(=O)C1C2c3ccccc3O[C@@]1(C)N=c1s/c(=C/c3ccoc3)c(=O)n12 (stereo not given in full)
→ -2	-4	3%	2.6	-35
- CC(C)(C)OC(=O)N[C@H](Cc1ccccc1)C(=O)N1CCC(C(=O)O)CC1
→ -9	0	6%	1.2	-55
- CCN(C(=O)CSc1ccc2c(c1)OCCO2)C1CCS(=O)(=O)C1 (stereo not given)
→ -13	2	-6%	-3.4	-35
- COc1ccc(Oc2cccc(Cl)c2CNC(=O)CCCC(=O)O)cc1
→ 3	x	-6%	-0.7	x
- CC1(C)Cc2cccc(OCC(O)CN3CCN(c4ccccn4)CC3)c2O1 (stereo not given)
→ x	9	4%	3.0	-24
- C/C(=N/NS(=O)(=O)c1ccc(Br)cc1)c1c[nH]c2ccccc12
→ 1	x	x	-3.1	x

The last 2 records of the section above lead into the next.
Every second line gives: Mtb betalactam	Arbovirus anti	Mtb H37Rv	RecA splice inh	YopH PTP inh
- CC1(C)Cc2cccc(OCC(O)CN3CCN(c4ccccn4)CC3)c2O1 (stereo not given)
→ x	9	4%	3.0	-24
- C/C(=N/NS(=O)(=O)c1ccc(Br)cc1)c1c[nH]c2ccccc12
→ 1	x	x	-3.1	x
- Cc1cccc(CNc2ccc(C(CC(N)=O)NC(=O)c3ccccc3)cc2[N+](=O)[O-])c1 (stereo not given)
→ 12	x	-4%	1.6	x
- COc1ccccc1N(C)S(=O)(=O)c1ccc(C(=O)OCC(=O)NCc2cccs2)cc1
→ -1	x	0%	0.6	x
- CCCCOc1ccc(-c2cn3ccccc3n2)cc1[N+](=O)[O-]
→ 94	-22	15%	2.7	-18
- COc1ccc(S(=O)(=O)NCCOc2ccccc2)cc1C
→ -5	8	0%	-1.3	x
- COc1ccc(-c2nn(-c3ccccc3)cc2/C=C/C(=O)OCC(=O)Nc2ccc(C#N)cc2)cc1
→ 9	-4	8%	1.1	-39
- O=C(Nc1ccccc1)c1ccc(C(=O)Nc2ccccc2)nc1
→ 4	-5	2%	-4.2	x
- Cc1ccc(-c2cc(C(=O)N/N=C/C=C/c3ccco3)c3ccccc3n2)cc1C
→ 97	-30	x	2.1	8
- Nc1ncnc2nc(SCC(=O)N3CCN(c4ccccc4)CC3)[nH]c12
→ -11	9	-1%	2.0	11
- COc1ccc(Cc2nnc(SCc3nc4ccccc4c(=O)[nH]3)n2C)cc1
→ 0	1	-14%	-0.3	-38
- CN(CCO)c1nc(NCc2ccccc2)c2cnn(C)c2n1
→ 1	x	x	-1.4	x
- Cc1ccccc1C(=O)c1cccn1CC(=O)NCc1ccccc1
→ 3	2	2%	-2.2	x
- COc1cc(C)c(Cl)cc1S(=O)(=O)N1CCSC1
→ -3	x	x	-0.2	x
- COc1ccc(C)cc1NC(=O)Nc1ccccc1
→ -1	9	9%	3.0	-10
- Cc1ccc(NC(=O)C(C)Sc2nnc(C)n2C)cc1 (stereo not given)
→ -1	x	x	3.2	x
- O=C(CCCN=C1NS(=O)(=O)c2ccccc21)OCC(=O)c1ccc(F)c(F)c1
→ -1	x	x	0.3	x
- NS(=O)(=O)c1ccc(NC(=S)NC(=O)C2CCCC2)cc1
→ 2	x	x	1.5	x
- CC(C)(C)c1cc(C(=S)N2CCN(CCO)CC2)cc(C(C)(C)C)c1O
→ -3	-8	-8%	2.0	-9
- COc1ccc(CNC(=O)c2ccc(-c3ccccc3)cc2)cc1OC
→ -4	0	4%	-1.4	-33
- COc1ccc(-c2cc(C(F)(F)F)n3nc(C(=O)O)nc3n2)cc1
→ -3	7	x	x	-18
- O=C(CCNC(=O)c1ccc([N+](=O)[O-])cc1)NNC(=O)c1ccncc1
→ 33	x	x	-2.7	x
- CCCc1nn(C)c(C(=O)Nc2ccc(Cl)cc2)c1Cl
→ 4	3	7%	-0.1	-29
- NC(=S)Nc1ccc(C(F)(F)F)cc1Cl
→ -7	x	-6%	-0.6	x
- CC(C)c1cc(C(=O)NC2CCCCC2)no1
→ 17	-7	3%	-0.2	-7
- CCOC(=O)c1ccccc1NC(=O)[C@@H]1CCCN1C(=O)OC(C)(C)C
→ -2	x	x	-0.5	x
- CC12CC(c3ccccc3O1)N(C(=O)c1ccco1)C(=S)N2c1ccc(F)cc1 (stereo not given)
→ 2	-15	-2%	3.1	-15
- CC1(C)Cc2c(C#N)c(N)sc(=S)c2CS1
→ 9	6	-2%	13	23
- O=C(O)C(Cc1cnc[nH]1)NS(=O)(=O)c1ccc(Cl)cc1 (stereo not given)
→ 1	12	-2%	-3.4	-8
- CCOc1ccc(NC(=NCc2ccc3c(c2)OCO3)SC2CC(=O)N(c3ccccc3)C2=O)cc1 (stereo not given)
→ 7	-17	-1%	0.0	-16
- Cc1cc(Cl)cc(Cl)c1OCCCCN(C)C
→ -2	-21	11%	-1.4	-4
- COc1ccc2c(C(=O)CN3CCC(C)CC3)c[nH]c2c1
→ -18	-5	-2%	-1.7	-16
- O=C(NCc1ccco1)/C(=C\c1cccs1)NC(=O)c1ccco1
→ 4	2	6%	-1.7	x
- O=C(CCn1c(=O)c2ccccc2n(Cc2ccccc2)c1=O)NC1CCN(Cc2ccccc2)CC1
→ -6	x	-1%	-15	x
- O=C(CCCC(=O)Nc1ccc(Br)cc1)N/N=C/c1ccccc1
→ -20	x	x	-4.0	x
- CCCCC(=O)N=c1sc2cc([N+](=O)[O-])ccc2n1C
→ 1	-9	14%	-0.9	x
- O=C(NCc1ccc(C(F)(F)F)cc1)C1CC(c2ccc(C(F)(F)F)cc2)=NO1 (stereo not given)
→ -5	x	4%	-3.0	x
- CCN1C(=O)c2cccc3c(NC(=O)c4ccc(OC)c(OC)c4)ccc1c23
→ -2	-3	5%	-39	-33
- COc1ccc(C(=O)/C=C/C(=O)N(CC(=O)NC2CCCCC2)Cc2cccs2)c(O)c1
→ 1	-34	x	9.4	x
- COc1ccc(C(C(=O)NC2CCCC2)N(Cc2cccs2)C(=O)c2ccn[nH]2)cc1OC (stereo not given)
→ -4	0	-3%	-4.7	x
- COc1cccc(NC(=O)CCc2nc(-c3cccs3)no2)c1
→ -5	x	x	5.0	x
- O=C(Nc1ccc(O)c2c(=O)cc(-c3ccccc3Cl)oc12)c1ccccc1Cl
→ -8	-13	14%	0.3	-24

16 neighbouring compounds from above, quoted:
Every second line gives: Mtb betalactam	Arbovirus anti	Mtb H37Rv	RecA splice inh	YopH PTP inh
- NC(=S)Nc1ccc(C(F)(F)F)cc1Cl
→ -7	x	-6%	-0.6	x
- CC(C)c1cc(C(=O)NC2CCCCC2)no1
→ 17	-7	3%	-0.2	-7
- CCOC(=O)c1ccccc1NC(=O)[C@@H]1CCCN1C(=O)OC(C)(C)C
→ -2	x	x	-0.5	x
- CC12CC(c3ccccc3O1)N(C(=O)c1ccco1)C(=S)N2c1ccc(F)cc1 (stereo not given)
→ 2	-15	-2%	3.1	-15
- CC1(C)Cc2c(C#N)c(N)sc(=S)c2CS1
→ 9	6	-2%	13	23
- O=C(O)C(Cc1cnc[nH]1)NS(=O)(=O)c1ccc(Cl)cc1 (stereo not given)
→ 1	12	-2%	-3.4	-8
- CCOc1ccc(NC(=NCc2ccc3c(c2)OCO3)SC2CC(=O)N(c3ccccc3)C2=O)cc1 (stereo not given)
→ 7	-17	-1%	0.0	-16
- Cc1cc(Cl)cc(Cl)c1OCCCCN(C)C
→ -2	-21	11%	-1.4	-4
- COc1ccc2c(C(=O)CN3CCC(C)CC3)c[nH]c2c1
→ -18	-5	-2%	-1.7	-16
- O=C(NCc1ccco1)/C(=C\c1cccs1)NC(=O)c1ccco1
→ 4	2	6%	-1.7	x
- O=C(CCn1c(=O)c2ccccc2n(Cc2ccccc2)c1=O)NC1CCN(Cc2ccccc2)CC1
→ -6	x	-1%	-15	x
- O=C(CCCC(=O)Nc1ccc(Br)cc1)N/N=C/c1ccccc1
→ -20	x	x	-4.0	x
- CCCCC(=O)N=c1sc2cc([N+](=O)[O-])ccc2n1C
→ 1	-9	14%	-0.9	x
- O=C(NCc1ccc(C(F)(F)F)cc1)C1CC(c2ccc(C(F)(F)F)cc2)=NO1 (stereo not given)
→ -5	x	4%	-3.0	x
- CCN1C(=O)c2cccc3c(NC(=O)c4ccc(OC)c(OC)c4)ccc1c23
→ -2	-3	5%	-39	-33
- COc1ccc(C(=O)/C=C/C(=O)N(CC(=O)NC2CCCCC2)Cc2cccs2)c(O)c1
→ 1	-34	x	9.4	x

The results go on:
Every second line gives: Mtb betalactam	Arbovirus anti	Mtb H37Rv	RecA splice inh	YopH PTP inh
- Cc1ccc(SCC(=O)Nc2ccc3c(c2)C(=O)NC3=O)cc1
→ 0	-1	2%	0.8	x
- CCOC(=O)C1CCN(C(=O)Cc2cccc3ccccc23)CC1
→ -4	8	-23%	0.3	-65
- CCCCn1c(N)c(N(CCC(C)C)C(=O)c2cccc(-n3cnnn3)c2)c(=O)[nH]c1=O
→ -2	x	x	1.0	x
- Cc1ccc(N(CC(=O)Nc2cc(C)cc(C)c2)S(=O)(=O)c2c(C)noc2C)cc1
→ 9	x	x	6.0	x
- O=C(CN1CCCC1)NC(=O)NC1CCCC1
→ 1	5	-5%	-0.3	x
- O=C(O)c1ccc(NC(=O)c2cn(-c3ccccc3)nc2-c2cccc(Cl)c2)cc1
→ 5	x	x	5.7	x
- C=CC[n+]1c(-c2ccc(OC)c(OC)c2)csc1NNC(=O)Nc1ccccc1
→ 12	6	5%	-1.9	18
- Cc1cccc(Nc2nnc(SCC(=O)Nc3ccccc3[N+](=O)[O-])s2)c1
→ 61	11	u	1.8	-30
- O=C1CSC(c2ccccc2)N1CCc1ccccc1 (stereo not given)
→ -3	x	x	4.3	x
- CN(C)C(=O)c1cc(C(=O)c2ccc(C(F)(F)F)cc2)c[nH]1
→ -5	x	x	-2.1	x
- Cc1ccc(S(=O)(=O)N2CCN(CC(=O)N(CC(C)C)c3c(N)n(CC(C)C)c(=O)[nH]c3=O)CC2)c(C)c1
→ -6	-2	1%	0.2	-18
- CCOc1ccc(/C=N/NC(=O)Cc2csc(Nc3cccc(C(F)(F)F)c3)n2)cc1
→ -2	-37	5%	2.9	-8
- COc1ccc(CCCC(=O)NCCc2ccccc2)c(C)c1
→ 4	x	x	-1.3	x
- Cc1c(Nc2ccc(C=O)cc2)c(=O)n(-c2ccccc2)n1C
→ -4	-5	6%	-4.8	x
- CCC1(C)Cc2ccccc2-c2nc(SC)[nH]c(=O)c21 (stereo not given)
→ 3	x	x	-2.6	x
- Cn1c(NNC(=O)C2CCCCC2)cc(=O)n(C)c1=O
→ -1	1	4%	-0.1	x
- Cc1ccc(N2C(=O)C(Cc3ccc(O)cc3)NC2=S)cc1C (stereo not given)
→ -1	1	2%	0.5	-25
